# VACV Venus inh = qHTS for Stage-Specific Inhibitors of Vaccinia Orthopoxvirus: Venus Reporter Primary qHTS. Vaccinia virus Venus reporter expression, fluorescence. Potency, µM (highest dose often 36.5 µM), inactives show top-dose activity change, negative = inhibition, hits mostly inhibitors. hit rate 0.46% among 330,000. AID 720580, 2013; active means well fitted inhibition curve with a large enough effect; inconclusive means small, poorly fitted or top-dose-only effect; inactive means no such curve, though single readings can be large or run the other way; tested in A549 cells; further: nearly all actives have a fitted effect of over 30% in size; inactives centre near -10
# Vaccinia mCherry = qHTS for Stage-Specific Inhibitors of Vaccinia Orthopoxvirus: mCherry Reporter Primary qHTS; hit rate 0.63% among 310,000; AID 720579, 2013; Vaccinia virus mCherry reporter infection, fluorescence; about a quarter of the inactives have no number; Potency, µM (series often up to 36.5 µM), for the others: at the top dose activity change, negative = inhibition, hits mostly inhibitors; active = well fitted inhibition curve with a large enough effect; inconclusive = small, poorly fitted or top-dose-only effect; inactive = no such curve, though single readings can be large or run the other way; tested in A549 cells; further: nearly all actives have a fitted effect of over 35% in size; inactives centre near -10
# Active calls of the source: *; i = inactive; u = inconclusive; x = not tested or not shown; [ ] = dose if it differs, or a comment. On the % scale 0 is the no-effect control and ±100 the full control effect; potency means the concentration at half of the fitted maximal effect.
SMILES,VACV Venus inh,Vaccinia mCherry
CCOC(=O)c1c(-c2ccccc2)oc2ccc(OC(C)C(=O)O)cc12 (centres undefined),8%,i
CCOC(=O)C1=C(CC)OC(N)=C(C#N)C1c1ccc(OC)c(OC)c1OC (centres undefined),-14%,-7%
C[n+]1c(-c2ccccc2)cc2c(=Cc3ccc([N+](=O)[O-])cc3)c3ccccc3n21,233%[activator],x
CCC(=O)c1ccc(Oc2ccc(C(=O)c3ccc(C)cc3)cc2[N+](=O)[O-])cc1,-24%,-11%
Cc1ccc(S(=O)(=O)c2nnn3c2nc(N2CCN(c4ccccc4F)CC2)c2cc(Cl)ccc23)cc1C,-28%,-22%
Cc1cccc(/C=C/c2onc(C)c2[N+](=O)[O-])n1,-14%[7.34 µM],-10%[7.34 µM]
CN(CC(=O)Nc1c(Cl)cccc1Cl)C(=O)C1=COCCO1,-8%,-27%
O=S(=O)(NCC1(N2CCOCC2)CCCCC1)c1ccc(Cl)cc1C(F)(F)F,-16%,-10%
COc1ccc(Cl)cc1NC(=O)CN1C(=O)C(=O)N(C2CCCC2)C1=O,-8%,-9%
CCC(NC(=O)NNC(=O)c1ccncc1)(C(F)(F)F)C(F)(F)F,-7%,-13%
Cc1cccc(Cn2nnc3c(=O)[nH]c(C4CCCN(C(=O)c5ccc(C(C)(C)C)cc5)C4)nc32)c1 (centres undefined),-6%,-19%
O=Cc1cccn1-c1cccc([N+](=O)[O-])c1,-7%,-7%
C[C@H](NC(=O)c1ncn(C)c1C(=O)N[C@@H](C)c1ccccc1)c1ccccc1,5%,-21%
Cc1cc(Nc2ccccc2)c2c([N+](=O)[O-])ccc(C)c2n1,-14%,-21%
CCOc1cc(/C=N/O)cc(Br)c1OCc1ccc(Cl)cc1,u,u
O=C(Cc1cccc(NC(=O)C2CCN(C(=O)c3ccccc3)CC2)c1)Nc1cccc(C(=O)N2CCCCC2)c1,6%,-8%
O=c1ccc2cc(O[C@@H]3O[C@@H](CO)[C@H](O)[C@@H](O)[C@@H]3O)c(O)cc2o1,-13%,-17%
CCCC(C(=O)NC(C)(C)C)N(Cc1ccccc1)C(=O)c1snc(C(N)=O)c1N (centres undefined),-12%,-9%
COc1cccc(N(C(=O)c2cccs2)c2nc3ccccc3s2)c1,-15%,x
O=C(CN1C(=O)COc2ccc(S(=O)(=O)N3CCCCCC3)cc21)N1CCN(c2cccc(Cl)c2)CC1,-3%,-11%

# Part of the list above in order of number of heavy atoms, high to low:
SMILES,VACV Venus inh,Vaccinia mCherry
CCC(=O)c1ccc(Oc2ccc(C(=O)c3ccc(C)cc3)cc2[N+](=O)[O-])cc1,-24%,-11%
CN(CC(=O)Nc1c(Cl)cccc1Cl)C(=O)C1=COCCO1,-8%,-27%
O=Cc1cccn1-c1cccc([N+](=O)[O-])c1,-7%,-7%

# Other results.
SMILES,VACV Venus inh,Vaccinia mCherry
O=C(Nc1ccc(/C=C/c2nc3ccccc3o2)cc1)c1ccc(F)cc1,-5%,x
Nc1nc(N2CCCCC2)nc(N(c2ccccc2)c2ccccc2)n1,-14%,-17%
Cc1cc(=O)[nH]c(N2CCN(C(c3ccccc3)c3ccccc3)CC2)n1,-2%,x
N=c1n(Cc2ccccc2)c2ccccc2n1CC(O)COc1ccc(Cl)cc1Cl (centres undefined),u,u
CCOC(=O)N1CCC(N(CCN(C)C)C(=S)Nc2ccccc2OC)CC1,-9%,i
CCOC(=O)c1ccc(N2CCN(c3cccc(Cl)c3)CC2)c(NC(=O)Nc2ccc(OC)cc2OC)c1,-3%,-8%
COCc1[nH]nc2c1C(c1ccc(OC)cc1)C(C#N)=C(N)O2 (centres undefined),-4%,-13%
COc1cc(-c2nc(-c3ccccc3)c(-c3ccc(Br)cc3)[nH]2)cc(OC)c1O,-13%,-19%
O=C(Nc1ccc(Oc2ccc(C(F)(F)F)cn2)c(Cl)c1)C1CC1,-13%,-15%
Cc1ccc(/C=C/c2onc(C)c2S(=O)(=O)N2CCC(C(=O)N3CCOc4ccc(C)cc43)CC2)cc1,-3%[7.34 µM],-13%[7.34 µM]
Cc1cccc(C)c1N(CC(=O)N1CCCC1)S(C)(=O)=O,-5%,-10%
CCOC(=O)N/N=C/c1ccc(N2CCOCC2)s1,-22%,-3%
O=C(NC(Cc1ccccc1)c1ccc2c(c1)OCCCO2)c1ccccc1F (centres undefined),-2%,-17%
Cc1ccc(NCCC(=O)c2ccc(Br)cc2)cc1,-2%,-4%
Cc1cccc(NS(=O)(=O)c2ccc(C)c(C(=O)NCC(c3ccco3)N3CCCCC3)c2)c1 (centres undefined),-16%,-25%
CCn1cc(C(=O)NCCCOC(C)C)c(=O)c2cc(S(=O)(=O)N3CCOCC3)ccc21,-2%,-6%
N#Cc1ccc(NC(=S)N2Cc3ccccc3-n3nncc3C2)cc1,-2%,-5%
Cc1cc(C)cc(S(=O)(=O)c2cnc3ccccc3n2)c1,0%,2%
CCOc1ccc(S(=O)(=O)N(CC)CC(=O)NC2CC2)cc1,17%,-6%
C=CCn1c(SCc2nc(N)nc(N(C)C)n2)nnc1-c1cccnc1,-7%,-14%

# Compounds shown so far containing a tert-butyl group:
SMILES,VACV Venus inh,Vaccinia mCherry
Cc1cccc(Cn2nnc3c(=O)[nH]c(C4CCCN(C(=O)c5ccc(C(C)(C)C)cc5)C4)nc32)c1 (centres undefined),-6%,-19%
CCCC(C(=O)NC(C)(C)C)N(Cc1ccccc1)C(=O)c1snc(C(N)=O)c1N (centres undefined),-12%,-9%

# (cont.)
SMILES,VACV Venus inh,Vaccinia mCherry
O=C(Cc1cccc(C(F)(F)F)c1)Nc1cccc(S(=O)(=O)N2CCCC2)c1,-28%,-12%
CC(C)(C)n1nnnc1C(CCc1ccccc1)N1CCC(n2c(=O)[nH]c3ccccc32)CC1 (centres undefined),-23%,-20%
CCCOc1ccc2ccccc2c1/C=N/n1c(C)nnc1-n1nc(C)cc1C,u,x
CC(=O)c1cccc(NC(=O)CSc2ncc3c(n2)-c2cc(Cl)ccc2N(Cc2ccccc2)S3(=O)=O)c1,u,u
CO/N=C(\Cn1ncc(N2CCCC2)c(Cl)c1=O)c1ccc(Cl)cc1,-10%,x
O=C(Cn1c(=O)sc2ccccc21)Nc1ccccc1,-1%,x
COc1cc(Cl)cc(/C=N/NC(N)=O)c1O,4%,0%
COc1ccc(CN(C(=O)c2oc3ccc(F)cc3c2C)C2CCS(=O)(=O)C2)cc1 (centres undefined),-14%,i
O=C1NCCN(Cc2c(F)cccc2Cl)C1CC(=O)N1CCCO1 (centres undefined),-12%,-23%
CC1=C(C(=O)Nc2ccc(C)cc2C)C(c2ccccc2[N+](=O)[O-])n2ncc(C(=O)Nc3ccccc3)c2N1 (centres undefined),-15%,i

# Molecules listed so far that have an aryl thioether with sulfur outside any ring (two):
SMILES,VACV Venus inh,Vaccinia mCherry
C=CCn1c(SCc2nc(N)nc(N(C)C)n2)nnc1-c1cccnc1,-7%,-14%
CC(=O)c1cccc(NC(=O)CSc2ncc3c(n2)-c2cc(Cl)ccc2N(Cc2ccccc2)S3(=O)=O)c1,u,u

# New compounds follow
SMILES,VACV Venus inh,Vaccinia mCherry
OC(CNCCNc1ncccc1C(F)(F)F)COc1ccc(F)cc1 (centres undefined),-13%,i
O=C(C[C@@H]1C/C=C\C[C@@H](Cc2ccc(F)cc2)C(=O)OC[C@@H](Cc2c[nH]c3ccccc23)NC1=O)NCCO,-23%,u
Cc1cc2cc(C(c3nnnn3C3CCCC3)N(Cc3cccnc3)Cc3ccco3)c(=O)[nH]c2cc1C (centres undefined),-21%,-10%
COC(=O)[C@H]1C[C@@H]1[C@H](NS(=O)(=O)c1ccccc1)c1ccccc1,-12%,u
O=C(CP(=O)(CO)CO)c1ccc(Cl)cc1,8%,-4%
Cc1ccc(CNC(=O)CCc2c(C)nc3c(-c4ccc(F)cc4)c(C)nn3c2C)cc1,4%,1%
COc1ccc(N2CCN(C(=O)Cc3csc(NC(=O)Nc4ccccc4OC)n3)CC2)cc1,u,u
CC1=C(C(=O)OC2CCCCC2)C(c2cccnc2)n2ncnc2N1 (centres undefined),-27%,-15%
CCC(C(=O)O)P(=O)(c1ccc(Cl)cc1)c1ccc(Cl)cc1 (centres undefined),0%,-13%
CCC(C)[C@H]1COCCS(=O)(=O)N1Cc1ccccc1F (some centres undefined),u,u

# Entries above with a furan ring, fused or not (four):
SMILES,VACV Venus inh,Vaccinia mCherry
CCOC(=O)c1c(-c2ccccc2)oc2ccc(OC(C)C(=O)O)cc12 (centres undefined),8%,i
Cc1cccc(NS(=O)(=O)c2ccc(C)c(C(=O)NCC(c3ccco3)N3CCCCC3)c2)c1 (centres undefined),-16%,-25%
COc1ccc(CN(C(=O)c2oc3ccc(F)cc3c2C)C2CCS(=O)(=O)C2)cc1 (centres undefined),-14%,i
Cc1cc2cc(C(c3nnnn3C3CCCC3)N(Cc3cccnc3)Cc3ccco3)c(=O)[nH]c2cc1C (centres undefined),-21%,-10%

# (next part)
SMILES,VACV Venus inh,Vaccinia mCherry
COc1ccc(C)cc1NC(=O)CN(c1ccc(C)cc1)S(C)(=O)=O,-7%,i
COc1ccccc1CCCNC(=O)C1CCC(=O)N(CCc2ccc(Cl)cc2)C1 (centres undefined),-27%,-14%
Cc1ncc(CO)c(/C=N/NC(=O)c2ccc(O)cc2)c1O,-2%,-17%
CSc1cccc(N2C(=O)N(CC(=O)NCc3ccccc3Cl)c3ccccc3S2(=O)=O)c1,-20%,-14%
CCOC1=C2[C@H]([C@H]3C(=O)N(c4ccccc4)C(=O)[C@H]3C1)[C@@H](c1ccccc1)N(S(=O)(=O)c1ccc(C)cc1)[C@H]2c1ccccc1,-8%,14%
NCc1cn(Cc2ccccc2)nc1-c1ccccc1,-13%,-16%
O=C(c1cc(C2CCCCN2S(=O)(=O)c2ccccc2)on1)N1CCOCC1 (centres undefined),0%,-4%
COC(=O)[C@H]1[C@H]2C[C@@H]3c4[nH]c5cc(OC)ccc5c4CCN3C[C@H]2C[C@@H](OC(=O)/C=C/c2cc(OC)c(OC)c(OC)c2)[C@@H]1OC,-28%,-21%
CCN(Cc1cc(=O)[nH]c2ccccc12)C(=O)C(C)C,-2%,-4%
CC12CCC3C(CC=C4CC5(CCC43C)OCCO5)C1CCC2=O (centres undefined),-6%,i
CCOc1ccc(CCNC(=O)c2cccc(C#N)c2)cc1OCC,-14%,-1%
CN(C)c1ccc(NC(=O)CN2C3CCCC2CC(NC(=O)c2ccccc2)C3)cc1 (centres undefined),-16%,-20%
COc1ccccc1N1CCN(C2CCN(C(=O)c3cccc(F)c3)CC2)CC1,-17%,-21%
CCSc1nnc(NC(=O)NCC(F)(F)F)s1,-3%,-5%[1.46 µM]
Nc1nc(SCc2ccc(F)cc2)ns1,-12%,i
Cc1cccc(C(=O)NC(=S)N2CCN(c3ccc([N+](=O)[O-])cc3)CC2)c1,-22%,-16%
Cc1ccc(-c2nnn(CC(=O)NCC3COCCO3)n2)o1 (centres undefined),-8%,-11%
CC(C)(C)C(=O)Nc1ccc2nc(SCC(=O)N3CCCC3)sc2c1,0%,-6%
COc1ccc(N2CCN(C(=O)C(NC(=O)c3c(F)cccc3F)C(C)C)CC2)cc1 (centres undefined),-1%,-17%
CCCCCCN1C(=O)C(O)=C(C(C)=O)C1c1ccc(Cl)cc1 (centres undefined),-29%,x
O=C(c1ccccc1)c1ccc(CN2C(=O)c3ccccc3C2=O)o1,-3%,-12%
CCCn1c(NCc2ccc(C)o2)nc2ccccc21,-3%,-14%
CC(C)CC1C(=O)N2CCCC2C2(O)O[C@@](NC(=O)C3C=C4c5cccc6[nH]c(Br)c(c56)CC4N(C)C3)(C(C)C)C(=O)N12 (some centres undefined),-17%,u
